Screens as filed in PubChem BioAssay.
D2 PAM = Beta-Arrestin HTS for Positive Allosteric Modulators of the Human D2 Dopamine Receptor: Potentiators; D(2) dopamine receptor (Homo sapiens), P14416; DiscoveRx D2 beta-arrestin cells, luminescence, 90 min; 100% = 57 uM dopamine signal; potentiation, % (no concentration beside the values); 0.23% of 360,000 active; AID 624464, 2012; active = potentiation of 50% or more; inconclusive = 30% to 50%; inactive = 30% or less;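 further: compound concentration not given in the record; tested on top of an EC20 dose of dopamine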
Target sequence (P14416 whole entry, looked up): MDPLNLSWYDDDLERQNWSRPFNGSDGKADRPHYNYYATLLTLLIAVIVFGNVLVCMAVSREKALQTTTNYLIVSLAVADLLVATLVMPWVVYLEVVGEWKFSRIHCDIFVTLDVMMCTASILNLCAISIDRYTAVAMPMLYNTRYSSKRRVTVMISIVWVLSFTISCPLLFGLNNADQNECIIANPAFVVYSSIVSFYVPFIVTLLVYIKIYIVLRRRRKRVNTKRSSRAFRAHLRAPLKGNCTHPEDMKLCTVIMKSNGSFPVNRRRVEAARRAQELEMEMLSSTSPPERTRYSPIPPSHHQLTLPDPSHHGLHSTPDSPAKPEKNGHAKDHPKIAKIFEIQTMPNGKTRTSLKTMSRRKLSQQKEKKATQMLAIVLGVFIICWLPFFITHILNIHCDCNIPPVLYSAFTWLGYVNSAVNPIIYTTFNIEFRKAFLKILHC
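D2 cells co-treated with compound plus 50 nM dopamine (EC20) for 90 min at 37 deg C to detect potentiation. Beta-arrestin recruitment was read as enzyme-fragment luminescence after 1 h at ambient temperature. Full response was set by 57 uM dopamine.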
TRPML1 ag = qHTS for Agonists of the Human Mucolipin Transient Receptor Potential 1 (TRPML1); Mucolipin-1 (Homo sapiens), Q9GZU1; TRPML1-expressing cells, Ca2+ dye fluorescence, FDSS; host cell line not named in the record; reference of the full effect not given here; activation, % (no concentration beside the values); 0.12% of 410,000 active; AID 624414, 2012; in the data active = activation above about 50%; inconclusive = about 30% to 50%; inactive = below about 30%; further: 0% is about no effect; the text of the record puts the active cut at 80%
Target sequence (Q9GZU1 whole entry, looked up): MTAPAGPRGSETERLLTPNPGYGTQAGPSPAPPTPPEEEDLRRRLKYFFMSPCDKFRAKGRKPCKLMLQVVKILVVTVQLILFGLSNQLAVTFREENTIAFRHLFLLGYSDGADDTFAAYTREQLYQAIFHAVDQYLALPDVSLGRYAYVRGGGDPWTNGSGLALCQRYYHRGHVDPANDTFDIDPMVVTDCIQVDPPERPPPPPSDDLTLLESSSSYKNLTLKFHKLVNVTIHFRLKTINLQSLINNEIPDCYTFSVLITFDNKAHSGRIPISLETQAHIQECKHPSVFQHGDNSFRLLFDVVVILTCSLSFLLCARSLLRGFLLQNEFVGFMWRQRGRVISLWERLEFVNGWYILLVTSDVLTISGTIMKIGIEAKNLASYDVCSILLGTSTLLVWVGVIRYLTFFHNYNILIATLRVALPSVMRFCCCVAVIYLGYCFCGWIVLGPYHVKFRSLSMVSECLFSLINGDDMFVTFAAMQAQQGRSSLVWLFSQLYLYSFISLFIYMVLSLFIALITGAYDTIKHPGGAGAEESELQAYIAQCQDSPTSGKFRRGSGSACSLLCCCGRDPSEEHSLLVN
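Cells: TRPML1-DL, 1X Tet inducer, ~16 h at 37 degrees C/5% CO2. Dye: ABD Ca8 no-wash + quencher, 45-90 min RT. Read: 10 s baseline, compound add, 110 s agonist phase; 54-4 EC80 (4uM final), 110 s antagonist phase.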
D2 ag = Beta-Arrestin HTS for Positive Allosteric Modulators of the Human D2 Dopamine Receptor: Agonists. D(2) dopamine receptor (Homo sapiens), P14416. 0.084% of 360,000 active. DiscoveRx PathHunter D2 beta-arrestin, luminescence, 90 min; 100% = 57 uM dopamine signal. activation, % (no concentration beside the values); in the data active = activation above about 40%; inconclusive = about 15% to 40%; inactive = below about 15%; further: compound concentration not given in the record; the text of the record calls up to 30% inactive
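DiscoveRx PathHunter D2 beta-arrestin cells (2,100/well) attached overnight, then compound-stimulated 90 min at 37 C in HBSS/10 mM HEPES/0.1% Tween-20 buffer; beta-galactosidase complementation read by luminescence after 1 h at ambient temperature. Dopamine 57 uM final (EC100) as control.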
Six1-Eya2 blk = qHTS Assay for Inhibitors of the Six1/Eya2 Interaction; 0.56% of 360,000 active; AlphaScreen GST-Six1/His-Eya2 binding, biochemical; hits give low values; control for the full effect not named in the record; activity change, % (concentration not given with the values); Homeobox protein SIX1 (Homo sapiens) + Protein phosphatase EYA2 (Homo sapiens), …; AID 651725, 2012; in the data active = activity change below about -65%; inconclusive = about -30% to -65%; inactive = above about -30%; further: on the % scale 0 is the no-effect control and ±100 the full control effect
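GST-Six1 + His-Eya2 (5X stock: 250/500 nM); Tris pH 8.0, 300 mM NaCl, 0.05% BSA, 0.02% Tween 20; GSH donor/Ni acceptor beads; 1 h 37 °C dark; AlphaScreen readout.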
PINK1 modulator = A Quantitative High throughput Screen to Identify Chemical Modulators of PINK1 Expression; PINK1 immunofluorescence, high-content cytometry, 24 h; Potency, µM (highest dose often 76.6 µM), without a hit: at the highest dose activation (PINK1 increase), actives largely listed as activators; 0.2% of 410,000 active; active = well fitted activation curve with a large enough effect; inconclusive = small, poorly fitted or top-dose-only effect; inactive = flat fitted curve, though single readings scatter; cell line not stated here;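 further: potency means the concentration at half of the fitted maximal effect; % of control where 0% means no effect; nearly all actives have a fitted effect of over 65% in size; a mitochondrial uncoupler was the plate control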
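PINK1 protein level read as immunofluorescence by microplate cytometer in a fixed, stained stable cell line after 24 h exposure to five compound concentrations, with CCCP as control.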
TRPML1 inh = qHTS for Inhibitors of the Human Mucolipin Transient Receptor Potential 1 (TRPML1). 0.02% of 390,000 active. Mucolipin-1 (Homo sapiens), Q9GZU1. activity change, negative = inhibition, % (concentration not given with the values). AID 624415, 2012. TRPML1-inducible cells, Ca2+ dye fluorescence, FDSS; hits give low values; inhibition of EC80 agonist-evoked calcium signal; in the data active means activity change below about -50%; inconclusive means about -30% to -50%; inactive means above about -30%;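 further: stimulus is agonist 54-4 at its EC80 concentration; on the % scale 0 is the no-effect control and ±100 the full control effect; compound concentration not given in the record; the text of the record puts the active cut at -80%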
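Tet-induced TRPML1-DL cells loaded with Ca8 no-wash calcium dye were read kinetically on FDSS. Compound addition was followed by EC80 agonist 54-4 (4 uM final); inhibition was read over 110 s.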
* hit, by the source's call; ? = inconclusive; . = no result given; & = joins results of further samples; [ ] = dose if it differs, or a comment. Not a hit list. About 1% of those tested had a hit in this group.

Values run as follows: PINK1 modulator | TRPML1 ag | D2 PAM | TRPML1 inh | D2 ag | Six1-Eya2 blk
CCOc1cc(/C=N\NC(=O)Cn2nnc3ccccc32)ccc1O
    -1.1% | 1.3 | -22 | -21 | 0.6 | ?
Cc1c(O)ccc2c(CN(C)Cc3ccccc3)cc(=O)oc12
    14% | 0.6 | -2 | -13 | 5.0 | -6
O=C(NCC(c1ccco1)N1CCOCC1)c1c(F)cccc1F (stereo unspecified)
    3.9% | 0.5 | 2 | -8 | -2.2 | 6
O=C(c1sc2cc(F)ccc2c1Cl)N1CCN(c2cccc(Cl)c2)CC1
    29% | 2.0 | 4 | 29 | -4.4 | -10
O=C(CS(=O)c1cccc(C(F)(F)F)c1)Nc1ccccc1Cl (stereo unspecified)
    -2.7% | -1.2 | -1 | 1 | 0.2 | -1
c1ccc2[nH]c(C3CC3)nc2c1
    1.8% | -0.4 | -5 | -21 | -0.1 | 1
Cc1c2cc(O)c(=O)cc-2oc2cc(O)c(O)cc12
    12%[38.3 µM] | 24 | 14 | 95 | -5.5 | -89*
Cc1ccc(C2=Nc3ccccc3SC(c3cccc([N+](=O)[O-])c3)C2)cc1 (stereo unspecified)
    -0.5% | 2.8 | 0 | -8 | 1.8 | -17
O=[N+]([O-])c1ccc(CN2CCN(c3ccccc3)CC2)o1
    -0.6% | -0.1 | 3 | 13 | 4.1 | 1
CC1CC(C)(C)NC(=S)N1CC(=O)N(C)Cc1ccccc1 (stereo unspecified)
    3.2% | -0.9 | -4 | -6 | -2.8 | -15
COc1cccc(-c2cc(C(=O)NCCCn3ccnc3)no2)c1
    0.2% | -0.2 | -12 | -6 | -2.9 | -7
COC(=O)c1ccc(C(=O)OC)c(NC(=O)CCC(=O)O)c1
    1.8%[38.3 µM] | 0.1 | -2 | -27 | -0.5 | 5
CCOc1ccc(CN2C(=O)c3ccccc3Sc3ccc(C(=O)NC4CCC(C)CC4)cc32)cc1 (stereo unspecified)
    0.8% | 0.3 | . | 84 | . | .
Cc1cc(C)c(CNC(=O)c2cc(C3CC3)nc3c2cnn3C(C)C)c(=O)[nH]1
    1.8% | 4.0 | 7 | 9 | -2.6 | 0
Cc1c(CCC(=O)N2CCCCC2)c(=O)oc2cc3occ(C(C)(C)C)c3cc12
    -0.1% | ? | . | -18 | . | .
COc1ccc(NC(=O)C2CCN(S(=O)(=O)c3cn(C)nc3C)CC2)cc1
    -0.1% | -0.3 | -9 | 7 | 0.9 | -1
O=C(Nc1cccc(F)c1)c1cccc2c1C(=O)N(C1CCCCC1)C2
    1.2%&1.1% | 0.7&2.2 | -7 | 84&-23 | 0.8 | 0
Cc1nn(CCC#N)c2nc(C(F)(F)F)[nH]c(=O)c12
    0.7% | -0.5 | -16 | 6 | -2.1 | 9
Cc1[nH]c2ccccc2c1C(=O)NS(=O)(=O)Nc1ccc(F)cc1
    -1.0% | -0.1 | -4 | 28 | -1.1 | 5
O/N=C1\CCCC\C1=C/c1ccccc1
    3.0% | 3.1 | -12 | 53 | 0.5 | 3
COC(=O)[C@]1(C)N[C@H](CN(C)C(=O)c2ccc(C)cc2)[C@@H]2C(=O)N(Cc3ccccc3)C(=O)[C@@H]21
    0.5% | -0.5 | . | 41 | 0.1 | 4
CCN1CCN(c2nc(Nc3cccc(OC)c3)nc(N)c2[N+](=O)[O-])CC1
    7.2% | -0.2 | -53 | 26 | -5.9 | ?
COc1cccc2c1CCc1c-2nc2ccccc2c1C(=O)O
    -0.2% | 1.2 | -1 | 25 | -3.9 | 7
COc1ccc(-c2nc3n(n2)C(c2ccccc2OC)C(C(=O)Nc2cccnc2)=C(C)N3)cc1 (stereo unspecified)
    1.1% | -0.5 | . | 5 | . | .
Cc1cccnc1NC1CCCCC1
    -0.7% | 0.2 | -13 | -4 | 0.6 | 5
CC1CCCCC1NC(=O)/C(C#N)=C/c1ccccc1F (stereo unspecified)
    -3.7% | -0.1 | -11 | 36 | 3.9 | -3
O=C1CC(c2ccc3c(c2)OCCO3)Oc2ccccc21 (stereo unspecified)
    0.0% | 1.1 | -13 | -8 | -4.7 | 6
Cc1ccc(-n2nnc3c(=O)n(CC(=O)NCc4ccccc4)cnc32)cc1
    7.5% | -0.3 | -3 | -2 | -4.4 | 4
CCC(=O)Nc1ccc(C(=O)OCc2ccccc2Cl)cc1
    5.8% | -0.3 | -14 | -5 | -3.9 | 0
CCC(C)(C)n1nnnc1C(c1cccs1)N1CCN(c2nc3ccccc3s2)CC1 (stereo unspecified)
    . | 1.3 | 6 | 19 | 1.1 | -1
COc1ccc2c(=O)cc(-c3ccccc3)n(C)c2c1
    -0.9% | 2.7 | -4 | 25 | -2.5 | -4
O=C(Nc1ccccc1Cl)NC1(C(=O)NCc2cccnc2)CCCCC1
    2.2% | -0.4 | -7 | -4 | -1.9 | 2
O=C1OCCC1Sc1nc2cc(Cl)ccc2n1Cc1ccccc1 (stereo unspecified)
    9.7% | 0.5 | -4 | -12 | -0.8 | 0
CCc1cccc2c(C(=O)CN3C(=O)N(C)C4(CCCCC4)C3=O)c[nH]c12
    ? | 0.4 | -1 | 15 | 0.9 | 4
Cc1nn(CC(O)c2ccccc2)c(C)c1Br (stereo unspecified)
    . | -0.4 | 3 | -13 | -0.7 | 0
CC(C)NC(=S)Nc1ccc2[nH]c(=O)[nH]c2c1
    -1.4% | 0.3 | -11 | 5 | -5.0 | -6
COCCN1CCN(C(=O)c2ccc3nc(Cc4ccccc4F)oc3c2)CC1
    2.1% | 1.2 | 2 | 7 | -2.7 | 14
Fc1ccc(-c2nc3c4ccccc4ccn3c2CC2CCCCC2)cc1
    ? | 0.5 | -7 | 40 | -5.6 | 0
C=CCN(C(=O)CCC(=O)O)C1CC(=O)N(c2ccc(OC)cc2)C1=O (stereo unspecified)
    0.3% | -1.0 | 4 | 3 | -1.5 | 12
C[C@H]1CCC[C@]2(O[C@@H](CCO)C[C@@H](O)[C@@H]2O)O1
    -0.5% | -0.1 | -11 | -4 | -2.3 | 5
CCC(=O)OCc1c(C(F)(F)F)nn(C)c1Sc1ccc(F)cc1
    2.8% | 1.3 | 3 | -9 | -2.1 | 44
CCN(CC)C1Oc2cc3c(cc2C(c2cc(OC)c(OC)c(OC)c2)C1C)OCO3 (stereo unspecified)
    5.2% | 1.6 | -12 | 9 | 7.4 | -6
COC(CNC(=O)Cc1c(C)nc2c(-c3ccccc3)c(C)nn2c1C)OC
    4.2% | -0.3 | -4 | 28 | -1.6 | 1
COc1ccc(C(=O)CCC(=O)Nc2ccccc2C)cc1
    -0.9% | 0.1 | . | -10 | . | .
Cc1ccc(N/N=C/c2ccc3c(c2)OCCO3)cc1Cl
    15% | -0.9 | -8 | 14 | -4.3 | -17
NC(=O)c1c(NC(=S)Nc2ccccc2)sc2c1CCCC2
    -1.1% | 2.4 | -15 | -2 | 8.8 | -7
COc1ccccc1NC(=S)Nc1ccccc1F
    0.7% | 0.5 | -9 | -5 | -3.0 | -2
c1ccc(CCCNc2ncnc3nc[nH]c23)cc1
    -0.2%&1.1% | -1.1&-0.5 | 0 | 6 | -6.2 | 5
CCOC(=O)CNC(=O)C1(c2ccccc2)CCCC1
    -8.8%[38.3 µM] | -0.5 | -13 | -2 | -0.6 | 4
Cc1cc(C)c(S(=O)(=O)Nc2cc(SCC(=O)O)c(O)c3ccccc23)cc1C
    3.1% | 3.0 | 21 | 33 | 13 | -17
COc1ccccc1N(C)S(=O)(=O)c1ccc(Cl)c(C(=O)Nc2cccc(C)n2)c1
    1.0% | 2.4 | 5 | 2 | 0.3 | -10
Cc1ccc(N/N=C/c2cccnc2)cc1
    6.7% | -0.5 | -15 | 5 | -8.7 | 4
CC1=Nc2nc(N3CCCCC3)c(C#N)c3c4c(nc(c23)N1)N(c1ccc(C(C)C)cc1)C(=O)C4
    13% | 0.3 | -17 | -14 | -1.5 | -5
Cc1cc(C)c(NC(=O)CNC(=O)c2cc([N+](=O)[O-])ccc2N2CCOCC2)c(C)c1
    0.7% | 0.2 | -2 | -4 | -5.2 | -7
CN(C)c1ccc(NC(=O)Nc2ccc3c(c2)nnn3C)cc1
    0.7% | -1.0 | 7 | 24 | 1.1 | -3
O=C(NCCc1ccc(OC(F)F)cc1)C1CC(=O)N(c2ccc3c(c2)OCCO3)C1 (stereo unspecified)
    1.3% | -0.5 | -1 | -2 | -2.4 | 23
Cn1c(=O)oc2cc(S(=O)(=O)CCC(=O)NCCc3ccccc3)ccc21
    0.7%&1.4% | -0.4&-0.9 | -3 | -8&-21 | -1.0 | -1
Cc1nn(-c2ccccc2)c2c1N(CC(=O)N1CCN(c3ccc(F)cc3)CC1)C(=O)CS2
    5.3% | 0.0 | . | 15 | . | .
CSc1nc(SCC(=O)O)c2sc3nc(-c4ccccc4)c4c(c3c2n1)CCC4
    0.0% | -0.2 | -11 | -12 | -5.3 | -2
NS(=O)(=O)c1ccc(CCNC(=O)c2ccc(Cn3c(=O)[nH]c4ccccc4c3=O)cc2)cc1
    13% | 0.5 | -8 | -8 | -1.1 | 10

Shown in markdown: part of the list above.
| molecule | PINK1 modulator | TRPML1 ag | D2 PAM | TRPML1 inh | D2 ag | Six1-Eya2 blk |
| --- | --- | --- | --- | --- | --- | --- |
| Cc1cc(C)c(NC(=O)CNC(=O)c2cc([N+](=O)[O-])ccc2N2CCOCC2)c(C)c1 | 0.7% | 0.2 | -2 | -4 | -5.2 | -7 |
| CN(C)c1ccc(NC(=O)Nc2ccc3c(c2)nnn3C)cc1 | 0.7% | -1.0 | 7 | 24 | 1.1 | -3 |

Continued.
Values run as follows: PINK1 modulator | TRPML1 ag | D2 PAM | TRPML1 inh | D2 ag | Six1-Eya2 blk
c1ccc(CCc2nn3c(C4COc5ccccc5O4)nnc3s2)cc1 (stereo unspecified)
    -2.0%[38.3 µM] | 2.5 | -4 | 22 | 2.0 | 1
CCCC(=O)C1=C(c2ccc(C)cc2)N(C(=O)CCC)n2cnnc2S1
    0.6% | 1.8 | . | -12 | . | .
COc1cc2c(cc1OC)C(c1ccc(F)cc1)N(c1cccc(C#N)c1)C(=O)C2 (stereo unspecified)
    1.0% | -0.8 | . | -6 | . | .
COc1ccc(-c2noc(N3CCC(C(=O)N4CCN(c5ccccc5OC)CC4)CC3)n2)cc1
    0.3% | -0.1 | . | 0 | . | .
